Mtb H37Rv: Confirmatory growth inhibition assay against Mycobacterium tuberculosis H37Rv, potency (AID 1949) | most inactive calls were filed without a number and no value below 0 was filed | inhibition, % at 10 µg/mL; hits with a dose series show IC50 in µg/mL | 100,000 tested, 1.6% active;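 active means confirmed in a dose series; inconclusive means about 50% or more but not retested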;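 further: bacteria grown 7 days with compound before Alamar blue readout; 0% = untreated bacteria and 100% = reference antibiotic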
* hit, by the source's call; i = inactive; ? = inconclusive. These rows are one share of the data; rates above refer to the full screens.

SMILES	Mtb H37Rv
CCc1cccc(CC)c1NS(=O)(=O)c1ccc(OC)c(C)c1	i
CCOc1ccc(NC(=O)C(C)Sc2nnnn2C)cc1 (centres undefined)	1%
COc1ccc(CCNC(=O)COc2c(C)cc(SC)cc2C)cc1OC	i
CCOc1cc(/C=C(/C#N)c2nc3ccccc3[nH]2)ccc1OCC(=O)N1CCCC1	i
COC(=O)C1C2C=CC3(CN(CC(C)C)C(=O)C13)O2 (centres undefined)	1%
CCc1ccc(OCc2nc(-c3ccc(OC)c(OC)c3)no2)cc1	i
COC(=O)c1sccc1NC(=S)Nc1cc(Cl)ccc1OC	i
CCCC(C)C(=O)Nc1ccc(OC)cc1 (centres undefined)	i
O=C(CSc1ccc(Cl)cc1)Nc1ncc2c(n1)CC(c1cccs1)CC2=O (centres undefined)	i
Cn1c(/C(C#N)=C/c2cccc(O)c2)nc2ccccc21	i
Cc1ccc(C(=O)O)cc1NC(=S)NC(=O)c1cccc(I)c1	0%
CS(=O)(=O)N(CC(=O)N1CCCC1)c1ccc2c(c1)OCCO2	i
O=C(CCN1C(=O)c2ccccc2C1=O)Nc1ccc(NC(=O)c2ccco2)cc1	i
N#Cc1ccc(NC(=O)Nc2cccc(Cl)c2)cc1	4.6µg/mL*
Cc1ccc(C(C)C)c(OCCCN2CCCC(C)C2)c1 (centres undefined)	i
O=C(Nc1cccc(Cl)c1)C(Sc1ccccc1)c1ccccc1 (centres undefined)	i
CCCCC(=O)NC(c1ccc(OC)c(OC)c1)c1cc([N+](=O)[O-])c2cccnc2c1O (centres undefined)	i
Cc1cccc(OCC(O)Cn2cnc3ccccc32)c1C (centres undefined)	44%
Cc1cc(S(=O)(=O)NCC2CCCO2)c(C)cc1Cl (centres undefined)	i
CC12CCC(C(=O)Nc3ccc(Cl)cn3)(OC1=O)C2(C)C (centres undefined)	i
COc1ccc(NC(=S)N2N=CCC2c2ccccc2)cc1 (centres undefined)	i
COc1ccc(Cc2nc3c4cnn(Cc5ccccc5)c4ncn3n2)cc1	4%
COC(C(=O)Nc1ccc(C(N)=O)cc1)c1ccccc1 (centres undefined)	i
COc1ccc(Cl)cc1NC(=O)COc1ccc(C)cc1C(C)(C)C	i
CC1(C)CC(=O)C2=C(C1)N(CCc1ccccc1)C(=O)C2(NC(=O)c1ccco1)C(F)(F)F (centres undefined)	i
CCSc1ccccc1C(=O)Nc1ccncc1	i
CCOC(=O)c1ccc(NC(=O)CC2C(=O)N(c3ccc(F)cc3)C(=O)N2Cc2cccs2)cc1 (centres undefined)	45%
O=C1C2C3C=CC(C4CC34)C2C(=O)N1c1cc(Cl)cc(Cl)c1 (centres undefined)	3%
Cc1ccc2cccc(OCc3nnc(-c4ccccc4)o3)c2n1	i
CSc1cccc(NC(=O)CN(Cc2ccccc2)S(=O)(=O)c2ccc(F)cc2)c1	i

Next part (ten carried over from the part before).
SMILES	Mtb H37Rv
COc1ccc(NC(=S)N2N=CCC2c2ccccc2)cc1 (centres undefined)	i
COc1ccc(Cc2nc3c4cnn(Cc5ccccc5)c4ncn3n2)cc1	4%
COC(C(=O)Nc1ccc(C(N)=O)cc1)c1ccccc1 (centres undefined)	i
COc1ccc(Cl)cc1NC(=O)COc1ccc(C)cc1C(C)(C)C	i
CC1(C)CC(=O)C2=C(C1)N(CCc1ccccc1)C(=O)C2(NC(=O)c1ccco1)C(F)(F)F (centres undefined)	i
CCSc1ccccc1C(=O)Nc1ccncc1	i
CCOC(=O)c1ccc(NC(=O)CC2C(=O)N(c3ccc(F)cc3)C(=O)N2Cc2cccs2)cc1 (centres undefined)	45%
O=C1C2C3C=CC(C4CC34)C2C(=O)N1c1cc(Cl)cc(Cl)c1 (centres undefined)	3%
Cc1ccc2cccc(OCc3nnc(-c4ccccc4)o3)c2n1	i
CSc1cccc(NC(=O)CN(Cc2ccccc2)S(=O)(=O)c2ccc(F)cc2)c1	i
CCCCc1n[nH]c(=S)n1-c1ccccc1	i
O=C(NC(=S)NCc1ccccc1)c1ccccc1[N+](=O)[O-]	i
COC(=O)c1sccc1NC(=O)c1ccc(Br)s1	i
COc1ccccc1OS(=O)(=O)c1cc(Cl)ccc1Cl	i
O=c1cc(O)c2snc(Nc3cccc(C(F)(F)F)c3)c2[nH]1	1%
NS(=O)(=O)c1ccc(NC(=O)Cc2ccc(Cl)cc2)cc1	i
CCN(C(=O)c1ccc(OC)c(I)c1)c1ccccc1	i
COCCNC(=O)CC1Sc2ccccc2NC1=O (centres undefined)	i
CCOC(=O)C(C)Oc1ccc2c(=O)c(-c3ccc(Br)cc3)coc2c1 (centres undefined)	i
O=C1CC(c2ccccc2)=NN1c1cc(Cl)ccc1Cl	i

Exported in CSV form: four of the compounds above.
Structure,Mtb H37Rv
COc1ccccc1OS(=O)(=O)c1cc(Cl)ccc1Cl,i
O=c1cc(O)c2snc(Nc3cccc(C(F)(F)F)c3)c2[nH]1,1%
NS(=O)(=O)c1ccc(NC(=O)Cc2ccc(Cl)cc2)cc1,i
CCN(C(=O)c1ccc(OC)c(I)c1)c1ccccc1,i

(next part)
SMILES	Mtb H37Rv
COc1cccc2cc(C(=O)CC3(O)C(=O)N(Cc4ccccc4)c4ccccc43)c(=O)oc12 (centres undefined)	i
COc1ccc(C(F)(F)F)cc1N/C=C(\C#N)C(N)=S	i
Cc1ccc2oc(C(=O)Nc3ccc(S(=O)(=O)N(C)c4ccccc4)cc3)c(C)c2c1	28%
COc1ccccc1-c1nc2ccc(Cl)cc2c(=O)o1	i
Cc1ccc(NC(=O)c2ccco2)c(NC(=O)COc2ccc(Br)cc2)c1	i
Cn1c(=O)n(C)c2cc(NC(=O)Nc3cccc(Cl)c3)ccc21	i
O=C(Nc1nc2n(n1)C(c1ccccc1)C=C(c1ccc(Cl)cc1)N2)c1ccco1 (centres undefined)	19%
Nc1c(-c2ccccc2)cnn1-c1ccc(Br)cc1	1%
CS(=O)(=O)N(CC(=O)NCC1CCCO1)c1ccccc1F (centres undefined)	i
O=C(c1cc2nc(-c3ccco3)cc(C(F)(F)F)n2n1)N1CCCC1	i
O=C(CNS(=O)(=O)c1ccccc1)N1CCN(c2ccccc2)CC1	i
CC(NC(=O)c1ccc([N+](=O)[O-])o1)C12CC3CC(CC(C3)C1)C2 (centres undefined)	4.5µg/mL*
Cc1ccccc1OCC(=O)N1CCc2ccccc2C1	i
Cc1cc(C)c(C#N)c(SC/C=C/c2ccccc2)n1	8%
Cc1csc(NC(=O)c2ccc(NC(=O)C(C)C)cc2)n1	i
COc1cc(NC(=S)N2CCCCC2CO)cc(OC)c1 (centres undefined)	i
O=C(COc1ccccc1Br)NCc1cccs1	i
Cc1ccc(C)c(N(CC(=O)N2CCCC2)S(C)(=O)=O)c1	i
COc1cccc(OC)c1C(=O)Nc1ccc(Cl)c(-c2nc3ccccc3s2)c1	1.5µg/mL*
CC1CN(C(=O)CCCOc2ccc(Cl)cc2Cl)CC(C)O1 (centres undefined)	i
C=CCOc1cccc(CNn2nnnc2N)c1	i
CC(=O)c1cccc(NC(=S)N2CCN(c3cccc(C(F)(F)F)c3)CC2)c1	i
Cn1nc(C(=O)N2CCCC2)c2ccccc2c1=O	i
COc1cccc2cc(C(=O)NCC3CCCO3)c(=O)oc12 (centres undefined)	i
COCC(=O)n1nc(-c2cccnc2)nc1N	i
COc1ccc(S(=O)(=O)N2CCC(C(=O)NC3CCCCC3)CC2)cc1OC	i
COc1cc(NC(=S)Nc2cccc(C(C)=O)c2)c(OC)cc1Cl	i
Nc1c(C(=O)c2ccc(F)cc2)sc2nc(-c3cccnc3)cc(C(F)(F)F)c12	i
CCNc1nc(NC(C)(C)C)nc(SCC(N)=O)n1	i
COc1ccccc1OCC(=O)Nc1nc(C)c(C)s1	i
CC(C)c1ccc(S(=O)(=O)Nc2ccccn2)cc1	i
COc1ccc(S(=O)(=O)N(C)CC(=O)N2CCCCCC2)cc1	i
O=[N+]([O-])c1cc(Cl)ccc1Oc1ccccc1	i
N/C(=N\OC(=O)CCCc1ccccc1)c1ccc(Cl)cc1	i
CCOc1ccccc1N(CC(=O)Nc1cc(OC)ccc1OC)S(=O)(=O)c1ccc(Cl)cc1	5%
COCCn1c(SCC(=O)Nc2ccc(Br)cc2C(F)(F)F)nnc1-c1ccc(Cl)cc1	i
CNC(=O)CSCc1c(Cl)cccc1Cl	i
COCCn1c(-c2ccc(OC)cc2)nc2ccccc21	i
N#C/C(=C/c1cn(-c2ccccc2)nc1-c1ccncc1)S(=O)(=O)c1ccc(Cl)cc1	i
CN(C)c1ccc(CNCc2ccccc2Cl)cc1	i
Cc1cccc(CN2CCCC(C(=O)N3CCCC3)C2)c1 (centres undefined)	i
CCCC1NC(=S)N(c2ccccc2)C1=O (centres undefined)	10%
Cc1ccccc1C(=O)Nc1cccc(NC(=O)COc2ccc3ccccc3c2)c1	i
CCc1ccc(N2CC(O)=C(c3nc4ccccc4s3)C2=N)cc1	5%
O=C(CCc1ccccc1)NC(=S)Nc1ccc(Nc2ccccc2)cc1	2%
O=C(CN1CCCC1)Nc1ccc(-c2nc3cc(NC(=O)CN4CCCC4)ccc3o2)cc1	i
COc1cc(NC(=S)NCc2cccs2)c(OC)cc1Cl	i
CCOC(=O)c1sc(NC(=S)NCc2cc(C)n(C)n2)c(C(=O)OCC)c1C	i
O=S(=O)(c1ccc(Cl)s1)N1CCC(Cc2ccccc2)CC1	6%
O=C(Oc1cccc2cccnc12)c1cc2ccccc2oc1=O	3.1µg/mL*

No new results follow: entries from further up.
SMILES	Mtb H37Rv
CCc1cccc(CC)c1NS(=O)(=O)c1ccc(OC)c(C)c1	i
CCOc1ccc(NC(=O)C(C)Sc2nnnn2C)cc1 (centres undefined)	1%

Next section:
SMILES	Mtb H37Rv
C=CCn1c(COc2ccc(C)cc2OCC)nnc1SCC(=O)Nc1cc(F)ccc1C	1%
COc1ccc(Cl)cc1S(=O)(=O)N1CCN(c2cccc(Cl)c2)CC1	1%
COc1ccc(C(=O)O)cc1NC(=S)NC(=O)c1cc(I)ccc1Cl	i
Cc1n[nH]c(=O)nc1NCCCN(C)C	i
C=CCNC(=O)c1ccccc1NC(=O)CSCc1c(F)cccc1Cl	i
COC(=O)c1c(NC(C)=O)sc(/C(C)=C/C#N)c1C	i
O=C(COc1ccccc1)N1CCN(Cc2ccccn2)CC1	3%
CCOc1ccccc1OCCn1nnc2ccccc21	i
C=C1C2(C(=O)Nc3ccc([N+](=O)[O-])cc3)CCC(C2)C1(C)C (centres undefined)	i
O=C(NC1CCCCCC1)c1ccc(F)cc1	i
Clc1ccc(OCCOCCN2CCOCC2)c(Br)c1	i
COC(=O)c1ccccc1NC(=O)COc1ccccc1C(N)=O	i
Cc1cc(NC(=O)c2ccccc2[N+](=O)[O-])ccc1NC(=O)c1cc2ccccc2o1	i
O=C(NC(=O)C(F)(F)F)Nc1cc(C(F)(F)F)ccc1Cl	i
CCC(=O)c1ccc(OCC(O)CN2CCN(c3ccc(F)cc3)CC2)cc1 (centres undefined)	4%
O=C(Oc1ccc2c(c1)CCC2)N(c1ccccc1)c1ccccc1	5%
CS(=O)(=O)N(CC(=O)N1CCc2ccccc2C1)c1ccccc1Br	i
O=C(CN(c1ccccc1F)S(=O)(=O)c1ccccc1)Nc1ccc(F)cc1F	i
COC(=O)c1ccc(NC(=O)C(C)Sc2nc3ccccc3[nH]2)cc1 (centres undefined)	7%
COc1ccc(CCNC(=O)/C=C/c2cc(OC)ccc2OC)cc1	7%
Cc1cccc(NC(=O)CN2CCN(C)CC2)c1	i
O=C(CSc1nnc(-c2ccccc2)n1-c1ccc(F)cc1)c1ccccc1	i
CCn1c(Cc2ccc(OC)cc2)nnc1SCC(=O)N1CCN(c2ccccc2)CC1	i
Cc1ccc(C(=O)O)cc1NC(=O)c1ccc2c(c1)C(=O)N(C)C2=O	i
COC(=O)c1cc(C(=O)NC(=S)Nc2ccc(Cl)c(C(=O)OC)c2)cc(C(=O)OC)c1	i
O=C(Nn1c(=O)[nH]c2ccccc2c1=O)c1ccco1	i
Cc1ccc(N(CC(=O)Nc2cccc(Cl)c2)S(=O)(=O)c2ccc(F)cc2)cc1	i
CCCc1cc(=O)oc2cc(OCC(=O)Nc3c(C)cccc3C)ccc12	i
Cc1nnc(SCC(=O)Nc2ccc(N3CCOCC3)cc2)o1	3%
Cc1ccc(OCC(=O)Nc2cccc(C(=O)O)c2)c(Br)c1	i
CCc1cccc(CC)c1NC(=O)c1ccc(N(Cc2ccccc2C)S(C)(=O)=O)cc1	i
CN(C)S(=O)(=O)c1ccc(C(=O)Nc2cccc(CCc3ccccn3)c2)cc1	i
CN(C)Cc1c(O)ccc2c1c(-c1ccccc1)nn2-c1ccccc1	?
COc1ccc(C(=O)Nc2ccccc2C(=O)NCCc2ccccc2)cc1OC	i
O=C(NCc1ccco1)c1c(NC(=O)C2COc3ccccc3O2)sc2c1CCCC2 (centres undefined)	i
CS(=O)(=O)N(CC(=O)NCC1CCCO1)c1cccc(F)c1 (centres undefined)	i
COc1ccc(OC)c(Nc2nc(-c3cccc([N+](=O)[O-])c3)cs2)c1	i
COc1ccc(C(=O)NC(CC(C)C)C(=O)O)cc1OC (centres undefined)	i
C=CCn1c(SCC(=O)c2ccc(OC)c(OC)c2)nnc1-c1cccc(C)c1	i
CNc1nc(Oc2ccccc2C(=O)OC)nc(SC)n1	i
CCCCNC(=O)C1Cc2ccccc2CN1S(=O)(=O)c1cccs1 (centres undefined)	1%
O=C1CC(c2cccs2)CC2=C1C(c1cc(=O)c3cc(Cl)ccc3o1)Nc1ccccc1N2 (centres undefined)	4%
O=C(C1CCCN(Cc2cccc(Br)c2)C1)N1CCCCC1 (centres undefined)	i
CCOc1ccc2[nH]c(C)c(CCC(C)=O)c(=O)c2c1	i
NC(=O)CSc1nnnn1-c1ccc(I)cc1	i
O=C(Nc1ccccc1OC(F)F)C(Cl)(Cl)Cl	i
O=C(CSCc1c(F)cccc1Cl)NCc1ccco1	i
